# Assay outcomes as filed in PubChem.
# StopGo reporter = FMDV 2A StopGo reporter, luciferase signal; human cells with a luciferase reporter of 2A StopGo recoding; control for the full effect not named in the record; actives 1.2% (n = 410,000); AID 1159524; Potency, µM (doses to about 57.9 µM), for the others: at the top dose signal change, negative = less light; active = well fitted falling curve with a large enough effect; inconclusive = small, poorly fitted or top-dose-only effect; inactive = no such curve, though single readings can be large or run the other way; tested in HEK293T cells; also: nearly all actives have a fitted effect of over 45% in size; luciferase light after 4 h
# RE007 growth inh = less growth of the S. pombe RE007 Vpr strain | S. pombe RE007 Vpr strain, BacTiter-Glo ATP luminescence, 24 h; control for the full effect not named in the record | Potency, µM (highest dose often 92.2 µM), without a hit: top-dose activity change, negative = less growth | actives 0.21% (n = 360,000) | AID 651644; active = well fitted falling curve with a large enough effect; inconclusive = small, poorly fitted or top-dose-only effect; inactive = no such curve, though single readings can be large or run the other way;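 also: nearly all actives have a fitted effect of over 50% in size; the assay follows cell death caused by Vpr and the record does not say whether a fall means rescue or toxicity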
#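 Fission yeast RE007 carrying one integrated HIV-1 vpr copy, seeded at OD 0.01 in PMG+AL medium with 23 nL pinned compound. Grown 24 h at 30 degrees; viability read by BacTiter-Glo luminescence after 5 min.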
# * hit, by the source's call; ? = inconclusive; [ ] = another dose, or the depositor's remark. % is scaled to controls: 0 for no effect and ±100 for the full control effect; potency is read from the fitted curve at half-maximal effect.
structure	StopGo reporter	RE007 growth inh
C[C@H](CO)N1C[C@H](C)[C@H](CN(C)C(=O)Nc2ccccc2F)OCc2cnnn2CCCC1=O	0%	7%
COc1ccc(CNC(=O)c2cn(Cc3ccc(OC(C)=O)cc3)c(=O)s2)cc1	-8%	1%[18.4 µM]
COCCN1C(=O)c2ccccc2C1c1nnnn1C(C)C (stereo not drawn)	-3%	11%
CCOC(=O)C1=CCC(c2ccc(C#N)cc2)N(S(=O)(=O)c2ccc(C)cc2)C1 (stereo not drawn)	-17%	-12%
COc1ccc(C(C)C)cc1-c1cc(C(=O)NCc2cccc(C(F)(F)F)c2)[nH]n1	?	3%
Cc1ccc(C(O)(C(=O)OC(C)C)C(O)c2ccccc2)cc1 (stereo not drawn)	34%[activator]	13%
COc1ccc(CN2CCN(C(=O)c3ccccc3C(=O)c3ccccc3)CC2)cc1F	0%	-1%
C[C@H](NC(=O)c1ncn2c1c(=O)[nH]c1ccccc12)c1ccccc1	-1%	-28%
COc1ccc(OC)c(N(CCN2C(=O)c3ccccc3C2=O)C(=O)CCl)c1	?	1%
CCOc1ccc(NS(=O)(=O)c2ccc(C(=O)N(C)CC(=O)Nc3cccc(OC)c3)cc2)cc1	?	-4%
CN1CCC(OC2c3ccccc3CCc3ccccc32)CC1	-24%	-18%
COc1ccccc1N=NNc1ccccc1OC	51%[activator]	-16%
CC1(C(=O)NCc2ccccc2)CCC(=O)N1C1CCN(Cc2ccccc2)CC1 (stereo not drawn)	-25%	-8%
CCOC(=O)[C@]12Cc3cc(OC)ccc3[C@H]1N(CC(=O)OC)C(=O)c1cc(OC)ccc12	14µM*	-1%
Cc1cccc(C)c1NC(=O)c1ccc(-c2cc(F)ccc2F)o1	-30%	?
CC(C)[C@H](NC(=O)c1ccc(Cl)cc1)C(=O)Nc1cccc(S(=O)(=O)N2CCOCC2)c1	-20%	15%
CN(C)C(=O)N=NC(=O)N(C)C	-18%	8%[18.4 µM]
O=C(N[C@H]1C=C[C@H](CC(=O)N2CCCCC2)O[C@@H]1CO)c1cccc(F)c1	-15%	10%
CN1OC[C@@H]2CN(C(=S)Nc3ccc(C#N)cc3)[C@H](c3ccc(N4CCCCC4)cc3)C[C@@H]21	39%[activator]	-3%
CC(C)n1c(=O)c2ccccc2n1Cc1cn(CCc2c[nH]c3ccccc23)nn1	-18%	-11%
COC(=O)[C@]12CCCCC=C1N(Cc1ccc3c(c1)OCO3)C(=O)[C@H](CC(=O)NCCCCc1ccccc1)C2	-23%	11%
O=C(NC1CC1)c1ccc(NC(=O)C2CCCC2)cc1	10%	-5%
CCn1cc(C(=O)Nc2ccccc2C(=O)OC)cn1	-19%	-18%
COc1ccc(-c2c(-c3ccsc3)oc3c2C(O)CCC3)cn1 (stereo not drawn)	-15%	-6%
CC1CCCN(CC(=O)Nc2ccc(S(=O)(=O)N3C(C)CCCC3C)cc2)C1 (stereo not drawn)	0%	2%
Cc1cc(C(=O)CSc2nc3ccc(Cl)cc3[nH]2)c(C)n1Cc1ccco1	-4%	23%
CCNC(=O)C1(C)CCCN(Cc2cc(-c3ccccc3)n(C)n2)C1 (stereo not drawn)	-12%	-7%
CN(Cc1ccccc1)C(=O)c1csc([C@@H]2C[C@H](O)[C@@H](CO)O2)n1	-16%	0%[18.4 µM]
COc1cc(F)ccc1-c1csc(C(O)c2ccc(F)c(F)c2)n1 (stereo not drawn)	-14%	?
CC(=O)NCC1(c2ccccc2)CCN(CCCC(=O)c2ccc(F)cc2)CC1	1%	-18%
COC(=O)c1ccc(COC(=O)C2CCN(S(=O)(=O)c3c(C)cc(C)cc3C)CC2)o1	-22%	15%
Cc1ccc(S(=O)(=O)Nc2ccc3c(c2)C(=O)N([C@H](C)CO)C[C@H](C)[C@H](CN(C)C(=O)Nc2cccc4ccccc24)OCCCC[C@@H](C)O3)cc1	0%	17%
O=C1c2cccc3cccc(c23)C(=O)N1CCO	-14%	6%
COc1ccc(C=C2SC(=S)N(CCCN3CCOCC3)C2=O)c(OC)c1	-27%	-16%
C#Cc1ccc(NC(=O)C2(C)CCN2C(=O)Cc2ccc(C(C)C)cc2)cc1 (stereo not drawn)	?	10%
O=C(c1ccc2c(c1)CCC2)N1CCN(Cc2ccccc2)CC1	6%	-14%
COc1cc(OC)cc(-c2noc([C@@H]3O[C@H](CO)[C@@H](O)[C@H]3O)n2)c1	-19%	0%
CC1CCCCN1CCNC(=O)c1ccc2c(c1)N(Cc1cccc(Cl)c1)C(=O)c1ccccc1S2(=O)=O (stereo not drawn)	1%	2%
Cc1cc2c(cc1C)-n1nnnc1C(N1CCCNCC1)C(=O)N2 (stereo not drawn)	-19%	2%
COc1ccc(N2CCN(C(=O)COC(=O)CC(NC(N)=O)c3ccc(Cl)cc3)CC2)cc1 (stereo not drawn)	?	9%
Cc1cc(N(C)C)cc(C)c1N=Nc1cc[n+]([O-])cc1	36%[activator]	-11%
O=C(CSc1nc2ccccc2c(=O)n1-c1ccc(F)cc1F)NC1CC1	-16%	1%
CCOC(=O)[C@]12CCC=C1N(Cc1ccc3c(c1)OCO3)C(=O)[C@H](CC(=O)NCCCN1CCCC1=O)C2	-15%	1%
Cc1cccc(NC(=O)c2cc([N+](=O)[O-])ccc2N2CCOCC2)c1C	-21%	-3%
COC(=O)N(C)C[C@@H]1OCc2ccccc2-c2c(n(C)c3ccccc23)C(=O)N([C@H](C)CO)C[C@@H]1C	1%	-6%
COC(=O)c1csc(C2OC(CO)C(O)C2O)n1 (stereo not drawn)	5%	17%
C#CCNC(=O)C[C@@H]1C[C@@]2(C(=O)OC)CC(C)(C)CC=C2N(CCCCCCCC)C1=O	-23%	-25%
CC(=O)NCCNc1nc(NCC2CC2)nc2cc(-c3ccccc3)sc12	-11%	-20%
C[N+]1(C)CCC(OC(=O)C(O)(c2ccccc2)C2CCCC2)C1 (stereo not drawn)	-4%	-8%
NC(=O)C1CCCN(C(=O)c2[nH]c(C(F)(F)F)nc2-c2ccccc2)C1 (stereo not drawn)	-12%	0%

# Carrying on:
mol	StopGo reporter	RE007 growth inh
c1ccc(N2[C@@H]3CC[C@H]2c2ccccc2C3)cc1	-8%	9%
Cc1ccc2cccc(OC(=O)c3c(F)cccc3Cl)c2n1	-11%	-22%[18.4 µM]
COC(=O)C[C@@H]1OC[C@H](C)N1S(=O)(=O)c1ccc(C)cc1	-7%	12%
CC(C)=CC(=O)N1CCC(Oc2cccc(C(=O)NCc3ccccn3)c2)CC1	-18%	0%
CCN(CCn1cccn1)C(=O)c1ccc(OC2CCN(C(=O)CCOC)CC2)cc1	4%	13%
Cc1cc(C(=O)N2CCc3ccccc32)ccc1[N+](=O)[O-]	13%	-6%
Cc1ccc(S(=O)(=O)N2CC(O)C[C@H]2C(=O)OCC(=O)N2CCN(c3ccc(F)cc3)CC2)cc1C (stereo partly drawn)	?	3%
CC(=O)N1CCOC12CCN(Cc1ccccc1)CC2	-10%	-19%
CCCCN1C(=O)C(CC(=O)NCc2cccc3ccccc23)CC(C(=O)N(C)C)=C1C (stereo not drawn)	-13%	?
COc1cc(C(C)=O)ccc1OCC(=O)Nc1ccc(S(=O)(=O)N2CCCCC2)cc1	-13%	-3%
CCC1NC(=O)c2cc3ccccc3cc2-n2c1nc1cc(OC)c(OC)cc1c2=O (stereo not drawn)	?	-2%
O=C(O)C[C@H]1c2ccc(C(F)(F)F)cc2S(=O)(=O)N1C1CCCCC1	51%[activator]	-9%
O=C(Nc1nnc(-c2ccco2)o1)c1ccc(S(=O)(=O)N2CCCCC2)cc1	?	7%
CC1(Cc2ccccc2C#N)C(=O)Nc2cc(-c3ccccc3Cl)ccc21 (stereo not drawn)	-29%	6%
C=C1CCN(c2ccc(C(=O)NCCC)cc2[N+](=O)[O-])CC1	4%	18%
CC(C)(C)NC1=NCCNC(c2ccccc2)=C1	-25%	-20%
COc1ccc(C=C2CCc3ccccc3C2=O)cc1	-71%	?
NC(=O)c1ccsc1NC(=O)COC(=O)CCc1ccccc1	-7%	-12%
COc1ccccc1OCC(=O)Nc1ccc(C(=O)Nc2ccccc2C(=O)O)cc1	-11%	-1%
COc1ccccc1CNCc1ccc2c(c1)OCO2	-8%	-3%

# Reprinted at random: 3 entries already listed
mol	StopGo reporter	RE007 growth inh
C=C1CCN(c2ccc(C(=O)NCCC)cc2[N+](=O)[O-])CC1	4%	18%
Cc1cc(C(=O)N2CCc3ccccc32)ccc1[N+](=O)[O-]	13%	-6%
O=C(Nc1nnc(-c2ccco2)o1)c1ccc(S(=O)(=O)N2CCCCC2)cc1	?	7%

# (listing goes on)
mol	StopGo reporter	RE007 growth inh
Cc1ccc(-c2nc3c(Cl)cc(C(F)(F)F)cn3c2Cc2ccccc2)cc1	0%	7%
COc1cc(C(O)c2nc(-c3cccc(C(C)C)c3)cs2)ccc1F (stereo not drawn)	-19%	?
Cc1cc2nc(NC(=O)C3(C)CCN(C)C3)[nH]c2cc1C (stereo not drawn)	24%	-12%
OC[C@@H]1CN(CCN2CCOCC2)C[C@H](n2cnc3c(NCc4ccc(F)cc4)ncnc32)O1	-26%	-8%
CC[C@]12CCCN3CCc4c(n(c5ccccc45)C(=O)C1)[C@@H]32	-25%	5%[18.4 µM]
Cc1cccnc1C(NC(=O)C1CCN(CCOc2ccc(F)cc2)CC1)c1ccc(Cl)cc1 (stereo not drawn)	-24%	-7%
Cc1cccc(C(O)c2ncc(-c3ccccc3)[nH]2)c1C (stereo not drawn)	31%[activator]	-24%
COC(=O)C[C@H]1C=C[C@@H](NC(=O)C2CC2)[C@@H](CO)O1	-17%	0%
O=c1c2ccccc2oc2cc(C#Cc3ccccn3)ccc12	-15%	7%
C/C=C1/C[C@@H](C)[C@](O)(CO)C(=O)OCC2=CCN3CC[C@@H](OC1=O)[C@@H]23	0%	12%
CCc1cc(C(=O)Nc2cc(S(=O)(=O)N3CCCCC3)ccc2N2CCN(C)CC2)sc1C	-28%	-9%
O=C(NCc1cccnc1)c1ccc(-c2ccc(F)c(F)c2)c2ccoc12	?	-15%
Cc1cc(C(=O)OC(C)C(=O)NC2CCCCC2C)c2ccccc2n1 (stereo not drawn)	-12%	0%
O=C(Nc1ccc(OCc2ccccc2)cc1)Nc1nnc([C@H]2C[C@H](O)[C@@H](CO)O2)s1	-13%	1%
C[C@H]1CN([C@@H](C)CO)C(=O)CCCn2cc(nn2)CO[C@@H]1CN(C)S(=O)(=O)c1ccc(-c2ccccc2)cc1	-14%	18%
CCCn1c(=S)[nH]c2cc(C(=O)N3CCN(c4ccc(F)cc4)CC3)ccc2c1=O	-21%	9%
Cc1ccc(S(=O)(=O)NCc2ccccc2Br)cc1	71%[activator]	3%
COc1ccc(CCN)cc1S(N)(=O)=O	-8%	-10%
Nc1ccn([C@@H]2O[C@H](C(=O)NCCCN3CCCC3=O)[C@@H](O)[C@H]2O)c(=O)n1	0%	4%
Nc1nonc1-n1nnc(C(=O)N/N=C/c2cccc(F)c2)c1CN1CCCC1	-28%	-5%

# Profiles from above. Order of values: StopGo reporter | RE007 growth inh
# O=C(Nc1nnc(-c2ccco2)o1)c1ccc(S(=O)(=O)N2CCCCC2)cc1 across the screens: ? | 7%
# CCn1cc(C(=O)Nc2ccccc2C(=O)OC)cn1 across the screens: -19% | -18%

# Remaining list, next part.
mol	StopGo reporter	RE007 growth inh
OCC[C@@H]1C[C@H](O)[C@@H](O)[C@@]2(OCc3cc(C(F)(F)F)ccc32)O1	0%	9%
O=S(=O)(Nc1ccccc1N1CCCC1)c1ccccc1C(F)(F)F	-6%	2%
O=C(O)C1=C[C@@H](c2ccc(Br)cc2)C[C@@H](OCCCCO)O1	-17%	17%
CC(C)CNC(=O)C1C(=O)Nc2ccccc2C(=O)N1C1CCCCC1 (stereo not drawn)	-17%	-1%
COc1ccc(C(=O)NCCNc2nc3c(C)cccc3cc2C#N)cc1	-12%	-2%
O=C1CCCN1c1ccc([N+](=O)[O-])cc1	3%	-11%
COc1ccc(-c2coc3c(C(=O)N4CCN(C)CC4)cccc23)c(C)c1	-7%	-5%
O=C(Oc1ccc[nH]c1=O)C1CC1	0%	2%
CC(=O)Nc1cc(-c2cccc(F)c2)cn2c(-c3ccc(F)c(Cl)c3)cnc12	-19%	8%[18.4 µM]
CCOC(=O)C1(C)CCCN(C(=O)c2cc(OC)c(OC)c(OC)c2)C1 (stereo not drawn)	-9%	2%
COc1ccc(-c2ccc3c(c2)C2CC3CCN2C(=O)OCc2ccccc2)cc1 (stereo not drawn)	0%	-7%
NC(c1ccc(F)c(F)c1)c1nc(-c2cc(F)cc(F)c2)cs1 (stereo not drawn)	-13%	-14%
CNC[C@@H]1Oc2cc(Br)ccc2S(=O)(=O)N([C@H](C)CO)C[C@@H]1C	-2%	11%
c1ccc(OCCNc2ccn3nc(-c4ccco4)cc3n2)cc1	28%	2%[18.4 µM]
CC(C)C[C@H]1COc2cc(N3CCN(C)CC3)ccc2S(=O)(=O)N1	0%	-18%
COC(=O)[C@]12CCCCC=C1N(CCc1ccc(OC)c(OC)c1)C(=O)[C@H](CC(=O)NCC1CCCCC1)C2	-2%	3%
CCOC(=O)C1=CCN(S(=O)(=O)c2ccccc2Cl)C1c1ccc(C)cc1 (stereo not drawn)	?	2%

# A portion of the library; rates above refer to the full screens.
